TRPML1 inh: qHTS for Inhibitors of the Human Mucolipin Transient Receptor Potential 1 (TRPML1). 390,000 compounds, 0.02% hits. Mucolipin-1 (Homo sapiens), Q9GZU1. activity change, negative = inhibition, % (no concentration beside the values). TRPML1-inducible cells, Ca2+ dye fluorescence, FDSS; active compounds read low; inhibition of EC80 agonist-evoked calcium signal. AID 624415, 2012; in the data active means activity change below about -50%; inconclusive means about -30% to -50%; inactive means above about -30%;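 also: stimulus is agonist 54-4 at its EC80 concentration; % is scaled to controls: 0 for no effect and ±100 for the full control effect; compound concentration not given in the record; the text of the record puts the active cut at -80%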
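Tet-induced TRPML1-DL cells loaded with Ca8 no-wash calcium dye were read kinetically on FDSS. Compound addition was followed by EC80 agonist 54-4 (4 uM final); inhibition was read over 110 s.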
ClpP mod: qHTS Assay for Activators of ClpP. purified B. subtilis ClpP, FRET peptide cleavage, 20 min. Potency, µM (titrated, usually from 57.5 µM), inactives show at the highest dose activity change, negative = active. 340,000 compounds, 1.9% hits. AID 651965, 2013; active = well fitted falling curve with a large enough effect; inconclusive = small, poorly fitted or top-dose-only effect; inactive = no such curve, though single readings can be large or run the other way; also: potency is read from the fitted curve at half-maximal effect; the source files actives as falling curves though it sought activators and does not explain the sign; nearly all actives have a fitted effect of over 65% in size; many hits overshoot -100%
Target sequence (P80244 whole entry, looked up): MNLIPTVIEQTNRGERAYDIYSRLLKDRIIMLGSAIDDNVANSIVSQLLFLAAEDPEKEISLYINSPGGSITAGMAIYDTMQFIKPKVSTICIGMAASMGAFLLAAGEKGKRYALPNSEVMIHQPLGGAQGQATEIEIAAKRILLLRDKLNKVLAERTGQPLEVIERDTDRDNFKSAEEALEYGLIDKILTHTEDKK
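FRET quenching reversal measured ClpP activation: 10 microg/mL B. subtilis ClpP at pH 8 with the FRET-FV decapeptide, read at 430 nm after 320 nm excitation. The 20-min minus 0-min signal was scaled between DMSO/no-enzyme wells and ADEP (5.8 microM final).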
Menin-MLL FL inh: qHTS Assay for Inhibitors Targeting the Menin-MLL Interaction in MLL Related Leukemias: Competition With Fluorescein Labeled MLL-derived Peptide; Fluorescence polarization, fluorescein-MLL peptide displacement from menin; FP activity change, % at 61.4 µM; 290,000 tested, under 10 active; AID 1766, 2009; inconclusive = falling polarisation curve, or a change in total fluorescence; inactive = total fluorescence flat and polarisation flat or rising; no compound was filed as active; the % refers to the polarisation; negative = inhibition;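 also: % of control where 0% means no effect; inhibitors lower the polarisation; unlabelled MLL peptide was the positive control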
Sfp PPTase inh: qHTS Assay for Inhibitors of Bacillus subtilis Sfp phosphopantetheinyl transferase (PPTase); 310,000 compounds, 3.5% hits; 4'-phosphopantetheinyl transferase ffp (Bacillus subtilis), Q9F4F7; Potency, µM, without a hit: max response, negative = inhibition, most hits filed as inhibitors; Biochemical Sfp PPTase activity, qHTS; AID 1490, 2009; active = well fitted inhibition curve with a large enough effect; inconclusive = small, poorly fitted or top-dose-only effect, or another doubt; inactive = no such curve, though single readings can be large or run the other way;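 also: the enzyme is Sfp with the accession as filed and its product quenches rhodamine fluorescence; potency is read from the fitted curve at half-maximal effect; 0% = enzyme reaction without inhibitor and -100% = no enzyme wells; top concentration of the series not given in the record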
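Buffer: 50 mM Hepes-Na pH 7.6, 10 mM MgCl2, 0.01% Nonidet P-40, 0.01% BSA. Enzyme 15 nM, pre-exposed to compound 15 min; substrates then added and fluorescence change tracked over 30 min.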
TRPV1 PAM: HTS Assay for Compounds that Act as Potentiators of the Vanilloid Receptor 1. Transient receptor potential cation channel subfamily V member 1 (Homo sapiens), Q8NER1. TRPV1-expressing cells, Fluo-8 calcium influx, capsaicin EC20 potentiation; host cell line not named in the record; control for the full effect not named in the record. potentiation, % at 8.33 µM. 320,000 compounds, 0.02% hits; active means potentiation above 80%; inconclusive means 30% to 80%; inactive means below 30%; also: 0% is about no effect
Target sequence (Q8NER1 whole entry, looked up): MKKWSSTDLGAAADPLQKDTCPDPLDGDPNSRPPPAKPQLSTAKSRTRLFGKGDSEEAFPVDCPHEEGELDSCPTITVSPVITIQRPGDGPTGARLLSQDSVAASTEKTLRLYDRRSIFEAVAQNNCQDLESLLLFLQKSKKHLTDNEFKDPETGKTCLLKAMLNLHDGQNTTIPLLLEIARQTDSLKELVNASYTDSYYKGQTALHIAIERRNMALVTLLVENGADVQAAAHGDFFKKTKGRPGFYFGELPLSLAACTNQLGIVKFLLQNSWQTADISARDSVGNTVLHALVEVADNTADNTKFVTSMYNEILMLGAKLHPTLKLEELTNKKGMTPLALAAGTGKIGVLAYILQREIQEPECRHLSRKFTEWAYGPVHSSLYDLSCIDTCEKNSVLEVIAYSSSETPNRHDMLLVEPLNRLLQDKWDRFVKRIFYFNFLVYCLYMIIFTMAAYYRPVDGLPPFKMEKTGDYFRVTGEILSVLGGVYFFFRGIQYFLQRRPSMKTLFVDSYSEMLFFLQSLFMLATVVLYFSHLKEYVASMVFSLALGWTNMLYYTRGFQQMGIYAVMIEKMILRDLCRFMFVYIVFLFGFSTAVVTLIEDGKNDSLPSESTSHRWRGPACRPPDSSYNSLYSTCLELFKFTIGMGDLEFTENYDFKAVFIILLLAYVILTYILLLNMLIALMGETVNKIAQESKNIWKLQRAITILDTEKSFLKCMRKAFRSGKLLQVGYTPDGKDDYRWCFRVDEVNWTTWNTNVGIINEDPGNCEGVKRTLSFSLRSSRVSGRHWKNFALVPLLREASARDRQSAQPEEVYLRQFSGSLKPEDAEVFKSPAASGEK
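TRPV1-expressing cells were cultured overnight at 35.5C and loaded with Fluo-8 calcium dye for 40 to 90 min at room temperature. After a 10 s baseline, compound was added and calcium influx was read kinetically for 3 min (ex 480/em 520 nm).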
gsp agonist: qHTS for Agonist of gsp, the Etiologic Mutation Responsible for Fibrous Dysplasia/McCune-Albright Syndrome: qHTS | gsp mutant cells, cAMP HTRF, 30 min; control for the full effect not named in the record | Potency, µM (doses to about 76.9 µM), for inactives: at the top dose activation (cAMP increase), most hits filed as activators | 340,000 compounds, 0.13% hits | AID 624287, 2012; active = well fitted activation curve with a large enough effect; inconclusive = small, poorly fitted or top-dose-only effect, or another doubt; inactive = no such curve, though single readings can be large or run the other way; cell line not stated here;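 also: phosphodiesterase inhibitor Ro 20-1724 added with compounds to block cAMP breakdown; potency is read from the fitted curve at half-maximal effect; nearly all actives have a fitted effect of over 60% in size; about a fifth of the inactives were tested at one dose only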
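Cells stably selected in G418 were plated at 2000/well, grown 16-24 hr, then given compounds in DMSO with the PDE inhibitor […] (300 uM solution added) for 30 min at 37C; cAMP was read by HTRF.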
gsp antag: qHTS for Antagonists of gsp, the Etiologic Mutation Responsible for Fibrous Dysplasia/McCune-Albright Syndrome: qHTS | 340,000 compounds, 0.4% hits | Potency, µM (doses to about 76.9 µM), for the others: top-dose activity change, negative = inhibition, actives largely listed as inhibitors | AID 624288, 2012 | gsp-mutant cells, cAMP HTRF, 30 min; control for the full effect not named in the record; active = falling curve of any shape with a large fitted effect; inconclusive = falling curve, mostly with a smaller effect; inactive = flat or rising curve; cell line not stated here;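 also: intracellular cAMP measured with PDE inhibitor Ro 20-1724 present during compound exposure; potency is read from the fitted curve at half-maximal effect; % is scaled to controls: 0 for no effect and ±100 for the full control effect; nearly all actives have a fitted effect of over 65% in size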
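Cells, 2000/well, grown 16–24 h in DMEM 10% FBS with 0.5 mg/ml G418, then compounds plus […] (300 uM addition stock), 30 min at 37C. cAMP read by HTRF (cAMP-d2 and anti-cAMP antibody-K in lysis buffer) after 30 min RT.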
An asterisk follows results filed as active; u = inconclusive; x = not tested or not shown; & = joins results of further samples; [ ] = dose if it differs, or a comment.

Preview:
smiles	TRPML1 inh	ClpP mod	Menin-MLL FL inh	Sfp PPTase inh	TRPV1 PAM	gsp agonist	gsp antag
C[C@]12C[C@H](O)[C@@H]3c4ccc(O)cc4CCC3[C@@H]1CCC2=O (some centres undefined)	62	1.0%	2.3	27%	6	-67%[inhibitor]	7%
CCOC(=O)C1CCCN(S(=O)(=O)c2ccccc2)C1 (centres undefined)	3	0.6%	2.7	17%	-32	-18%	7%
CC[N+](C)(C)Cc1ccccc1Br	7	0.2%	-0.2	18%&7%	5	x	2%

This part in full, previewed entries included:
smiles	TRPML1 inh	ClpP mod	Menin-MLL FL inh	Sfp PPTase inh	TRPV1 PAM	gsp agonist	gsp antag
C[C@]12C[C@H](O)[C@@H]3c4ccc(O)cc4CCC3[C@@H]1CCC2=O (some centres undefined)	62	1.0%	2.3	27%	6	-67%[inhibitor]	7%
CCOC(=O)C1CCCN(S(=O)(=O)c2ccccc2)C1 (centres undefined)	3	0.6%	2.7	17%	-32	-18%	7%
CC[N+](C)(C)Cc1ccccc1Br	7	0.2%	-0.2	18%&7%	5	x	2%
COc1ccc(S(=O)(=O)N2CCC(C(=O)NCCN3CCOCC3)CC2)cc1OC	-12	-1.0%	2.8	24%	-4	-3%[15.4 µM]	23%
COc1cc(-c2cc(N3C(=O)Nc4ccccc4N3O)n[nH]2)cc(OC)c1OC	25	-0.8%	-1.4	26%	9	-8%	5%
CN(CC(=O)NCc1cccc(F)c1)C(=O)c1ccco1	-3	-15%	0.9	16%	-5	27%	2%
CC(C)CC1NC(=O)N(CC(=O)Nc2ccc(OCc3ccccc3)cc2)C1=O (centres undefined)	0	x	x	x	-2	66%[15.4 µM]	2%
CN(C)CCN(Cc1ccccc1)c1ccccn1	5	-5.8%	-2.2&5.3&3.1	7%&20%&2%	1&-5	x	-5%
Cc1cc(=O)[nH]c(N/N=C/C=C/c2ccccc2)n1	4	x	-0.8	-12%	-20	-20%	-15%
CCOC(=O)C1CCCN(C(=O)c2ccc(-c3ccc([N+](=O)[O-])cc3)o2)C1 (centres undefined)	-2	0.9%	x	x	-13	-2%	4%
O=C(OC[C@@H]1CCCN2CCCC[C@H]12)c1cc2ccccc2oc1=O	-12	25µM*	0.9	8%	4	14%	1%
Cc1cccc(N(CC(=O)NCc2ccco2)C(=O)CCC(=O)Nc2nccs2)c1	-10	x	0.1	7%	-2	22%	-14%
COCCSc1nnc(NS(=O)(=O)Cc2ccccc2)s1	-14	-2.0%	2.7	8%	1	-40%[inhibitor]	-12%
COC(=O)c1[nH]c2cc(OC)ccc2c1NC(=O)CN1CCOCC1	x	x	3.1	-14%	-31	x	x
CCc1ccc(OCC(O)CN2CCN(CCO)CC2)cc1 (centres undefined)	18	-26%	-5.2	6%	1	12%[15.4 µM]	-9%
O=C(Nc1ccc(F)cc1)c1cc(S(=O)(=O)N2CCCCC2)ccc1F	7	1.8%	1.9	11%	-13	-19%	-2%
NS(=O)(=O)c1cccc(NC(=O)c2ccc3nc[nH]c3c2)c1	20	1.4%	0.4	12%	21	-6%[15.4 µM]	13%
CCc1nnc(NC(=O)C(CC)c2ccccc2)s1 (centres undefined)	22	-0.6%	0.6	1%	-1	-15%	6%
CCOC(=O)c1ccc(NC(=O)CN2CCc3ccccc3C2)cc1	-7	-3.8%	-0.7	u	-7	-33%[inhibitor]	-21%
COc1ccc(NCc2nnc(SCC(=O)Nc3ccccc3)n2C)cc1	-12	x	-0.1	3%	2	5%[15.4 µM]	7%
CCOC(=O)c1cc(NC(=O)N(C(C)C)C(C)C)c(C)nc1C	18	-16%	-0.1	10%	-13	39%	1%
Cn1c(=O)c(=O)n(C)c2cc(S(=O)(=O)CCC(=O)NCc3ccccc3)ccc21	10	-9.7%	-1.4	3%	-1	18%	13%
COc1ccc2nc(N(Cc3ccccc3)C(=O)CCNC(C)=O)sc2c1	1	-0.6%	x	6%	-2	21%	-4%
O=C(O)CCCNCc1ccccc1F	4	-2.1%	3.7	10%	0	u	7%
COc1ccc(/C=C2\NC(=O)C(C=NCc3ccccc3)=C2O)cc1	-2	-1.0%	5.7	10%	7	2%	3%
COc1ccc(C)cc1NC(=O)CCc1ccc(S(=O)(=O)N2CCOCC2)cc1	-12	0.8%	x	x	11	22%	-7%
CSc1oc(-c2ccco2)nc1S(=O)(=O)c1ccc(Br)cc1	-14	-14%	7.9	-2%	15	-33%[inhibitor]	-16%
CC1(C)Cc2ccccc2-c2nnc(SCC(=O)N3CCN(c4ccccc4)CC3)n21	46	-4.3%	5.9	3%	u	19%	35µM*
O=C(NCc1ccccn1)c1ccco1	-8	x	-20	-11%	15	-5%[15.4 µM]	5%
COCCNC(=S)Nc1ccc(S(=O)(=O)Nc2cnc3ccccc3n2)cc1	4	-11%	0.4	8%	0	-32%	-5%
CC1CCN(c2nc3ccc(C(=O)N4CCN(Cc5ccccc5)CC4)cc3s2)CC1	29	-20%	-0.4	-8%	-18	29%	-4%
COc1ccc(C(C)=O)cc1CSc1nnc2c(Cl)cc(Cl)cn12	-2	-25%	1.0	14%	1	46%	1%
CS(=O)(=O)c1ccc2nc(NC(=O)c3cccc(Cl)c3)sc2c1	-25	-2.2%	-3.9	2%	5	-17%[15.4 µM]	6%
Brc1ccccc1OCCCOc1cccc2cccnc12	19	u	-1.2	-2%	-3	16%	-13%
COc1ccc(/C=C/C(=O)OCCNC(=O)c2ccncc2)cc1OC	-8	-25%	3.9	13%	-1	6%[15.4 µM]	-2%
C=CCc1ccccc1OCC(O)Cn1ccnc1C (centres undefined)	34	1.2%	1.6	24%	28	u	9%

Retrieved by compound from the list above, 2 records:
smiles	TRPML1 inh	ClpP mod	Menin-MLL FL inh	Sfp PPTase inh	TRPV1 PAM	gsp agonist	gsp antag
C=CCc1ccccc1OCC(O)Cn1ccnc1C (centres undefined)	34	1.2%	1.6	24%	28	u	9%
COc1ccc(C(C)=O)cc1CSc1nnc2c(Cl)cc(Cl)cn12	-2	-25%	1.0	14%	1	46%	1%

Next part.
Value order – TRPML1 inh | ClpP mod | Menin-MLL FL inh | Sfp PPTase inh | TRPV1 PAM | gsp agonist | gsp antag
- Cc1noc(C)c1S(=O)(=O)N1CCC(C(=O)N(C)Cc2ccccc2)CC1
 : -16 | -0.5% | 2.5 | 21% | 0 | 0% | 7%
- Cc1ccc(S(=O)(=O)N2CCC(C(=O)OCc3ccc([N+](=O)[O-])cc3)CC2)cc1
 : 81 | 0.5% | x | -4% | -7 | -50%[inhibitor] | 2%
- CCC1=C2CC[C@H]3C(=O)N(CC)C(=O)[C@H]3[C@H]2[C@@]2(Cc3ccccc3)C(=O)N(Cc3ccccc3)C(=O)N2C1=O
 : 2 | -1.4% | 0.9&5.0 | 19%&2% | -19 | x | -5%
- CCCSc1nsc(NC(=O)CCC)n1
 : -4 | x | 1.8 | -12% | 11 | -34%[15.4 µM] | -6%
- COc1cccc(S(=O)(=O)NCC(=O)N2CCCC2)c1
 : -3 | -1.2% | -0.3 | 4% | 2 | -22% | -6%
- COc1nc(N=C(N)N)nc2ccc(C)cc12
 : x | x | 7.7 | 5% | 0 | x | x
- CCCCCCSc1ccc([C@@H]2[C@H]3C(=O)N(CC)C(=O)[C@H]3[C@]3(C(=O)OC)CCCCN23)cc1OC
 : -4 | -5.2% | x | x | x | 14% | -10%
- Cc1ccsc1/C=C1\SC(N)=NC1=O
 : -3 | 0.4% | 19 | 4% | -15 | u | 7%
- O=[N+]([O-])c1c(Nc2ccccc2)ccc2nonc12
 : -9 | -3.7% | -0.1 | 3% | 0 | 6% | 0%
- O=C(/C=C/c1ccccc1)N/C(=C/c1ccccc1)C(=O)N1CCCCC1
 : -2 | 4.5% | 0.1 | -8% | -15 | -4% | 3%
- C=CCCC(=O)Nc1nc(C)c(-c2csc(Nc3ccc(Cl)cc3Cl)n2)s1
 : 9 | -20% | 1.9 | -22% | 8 | 16% | -2%
- S=c1[nH]nc(-c2ccncc2)n1/N=C/c1cn(-c2ccccc2)nc1-c1ccc(Cl)cc1
 : -20 | x | -1.2 | 15% | -9 | 7%[15.4 µM] | 3%
- COCCC(=O)N1CCC(C(=O)Nc2ccc(Oc3ccccc3)nc2)CC1
 : 0 | -4.0% | -0.2 | 10% | -1 | -21% | 2%
- Cc1nc(N)sc1Cc1ccc2c(c1)OCO2
 : 19 | 1.5% | -8.1 | -8% | 2 | 9% | 3%[15.4 µM]
- CC(C)NC(=S)NC(=O)c1ccc(Cl)cc1Cl
 : 23 | 0.6% | 2.0 | 8% | 9 | 6% | -14%
- CC(=O)c1cc(CN2CCC(C(=O)Nc3ccc(-n4nc(C)cc4C)cc3)CC2)cs1
 : -9 | 2.6% | x | x | x | -9% | 4%

High-throughput results as filed in PubChem.
